High-throughput results from PubChem.
HIV Env fusion = inhibitors of HIV-1 Env-driven cell-cell fusion, primary screen, HeLa-JRFL effector, CEM21 target cells, luciferase. 1.1% of 360,000 active. inhibition, % at 12.3 µM. AID 651610, 2012;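 active = mean replicate inhibition score of at least 50 and every replicate individually at or above 50; inconclusive = only one of the two criteria met; inactive = mean below 50 and not all replicates reaching 50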;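 also: 0% = plate neutral controls and 100% = maraviroc near 300 nM; one replicate is shown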
eIF4H inh = human eIF4H binding inhibitors, primary screen, translation initiation inhibitor project, biochemical, uHTS, fluorescence polarization; Eukaryotic translation initiation factor 4H (Homo sapiens), Q15056; AID 2012, 2009; inhibition, % at 35 µM; 0.94% of 290,000 active; eIF4H fluorescence polarization binding assay;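 active = 50% or more with normal probe brightness, or confirmed in later tests; inconclusive = above 50% with abnormal brightness, or retests that disagree; inactive = below 50% or failed in later tests; about a fifth of its hits are not listed in these tables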;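 also: calls also rest on retests at 20 µM and on dose response follow-up; 0% = protein and probe with vehicle and 100% = probe without protein; strong numbers were not always called active; many hits fall short of the cut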
UUG fidelity = modulators of yeast start codon fidelity, primary screen, whole organism, S. cerevisiae, single point, plate reader. S. cerevisiae UUG-firefly luciferase reporter, luminescence/redox ratio. activity score, % at 18.7 µM. 0.13% of 350,000 active. AID 602363, 2012;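 active = replicate mean at a twofold rise or more, about +100% in these data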;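 also: firefly luciferase made from a UUG start codon reports start codon fidelity; reporter light over untreated wells divided by growth signal over untreated wells; some hits fall short of that in this replicate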
MT1-MMP act inh = blockers of MT1-MMP proenzyme processing, primary screen, HT1080 RFP-PRO-GFP cells, GFP/RFP fluorescence. Matrix metalloproteinase-14 (Homo sapiens), P50281. GFP/RFP ratio fluorescence, overnight; percent of plate control window, DMSO zero. GFP/RFP ratio change, % at 20 µM. 0.061% of 360,000 active. AID 651647, 2012;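 active = GFP/RFP ratio change of at least 30% with cell ATP level not reduced by more than half and red fluorescence within 50% of control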; also: strong numbers were not always called active
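Material – HT1080 RFP-PRO-GFP cells · Control set – DMSO wells and RFP-L50D-GFP cells · Incubation – overnight cell settling, then overnight compound exposure, 37 °C, 5% CO2 · Compound dosing – single-point 20 µM compound, 1% DMSO · Read-out – GFP/RFP fluorescence ratio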
PABP polyA inh = PABP poly(A) RNA binding inhibitors, primary screen, biochemical, fluorescence polarization, uHTS. inhibition, % at 35 µM. 1% of 290,000 active. AID 2014, 2009;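 active = 50% or more with normal probe brightness, or confirmed in later tests; inconclusive = above 50% with abnormal brightness, or retests that disagree; inactive = below 50% or failed in later tests; about a fifth of its hits are not listed in these tables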;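 also: calls also rest on retests at 20 µM and on dose response follow-up; controls were probe without protein and protein plus probe with vehicle; some compounds called inactive have numbers as strong as hits; many hits fall short of the cut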
CSC inhib = cancer stem cell viability inhibitors, primary screen, luminescence; cancer stem cell-like cells viability; inhibition, % at 7.5 µM; 1.1% of 300,000 active;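 active = mean at 75% or more and at least half the replicates too; inconclusive = mean and replicates disagree; tested in HMLE shEcad cells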;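 also: 0% = median of negative and 100% = median of positive control wells; the first replicate is given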
Rce1 inhib = yeast Rce1p protease inhibitors, primary screen, biochemical, fluorescence, cell-free homogeneous | calls only | yeast membranes, quenched prenylated peptide cleavage fluorescence | 0.27% of 290,000 active | CAAX prenyl protease 2 (Saccharomyces cerevisiae (strain ATCC 204508 / S288c)), Q03530;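 active = fall in fluorescence gain of 50% or more versus controls, with final raw signal at or below 3038400; inconclusive = same 50% fall but final raw signal above 3038400; inactive = fall in fluorescence gain under 50%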;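 also: plate controls were neutral control wells for no effect and wells lacking membranes for full effect; tested at 10 µM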
Target sequence (Q03530 whole entry, looked up): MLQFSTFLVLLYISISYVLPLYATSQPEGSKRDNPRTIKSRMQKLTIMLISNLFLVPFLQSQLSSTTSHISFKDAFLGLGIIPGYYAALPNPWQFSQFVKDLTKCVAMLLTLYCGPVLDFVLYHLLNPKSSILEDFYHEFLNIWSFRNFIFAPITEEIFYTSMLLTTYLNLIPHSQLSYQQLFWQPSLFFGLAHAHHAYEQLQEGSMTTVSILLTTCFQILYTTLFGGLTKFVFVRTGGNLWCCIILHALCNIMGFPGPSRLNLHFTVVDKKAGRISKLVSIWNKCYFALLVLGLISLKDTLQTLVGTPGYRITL
MT1-MMP act inh RFP = further read-out of MT1-MMP act inh, marked with its call; RFP signal change, %; measured here: RFP expression control read;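 0 = vehicle wells; hits needed this value within 50% of zero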
Starred values were filed as active, the others as inactive; i = inactive; ? = inconclusive; / = no result given; & = joins results of further samples. These rows are one share of the data, so the mix of outcomes need not match the whole.

SMILES	HIV Env fusion	eIF4H inh	UUG fidelity	MT1-MMP act inh	MT1-MMP act inh RFP	PABP polyA inh	CSC inhib	Rce1 inhib
COC(=O)[C@]1(Cc2ccccc2)N[C@H](CN(C)S(=O)(=O)c2ccc(-c3ccccc3)cc2)[C@@H]2C(=O)N(Cc3ccccc3)C(=O)[C@@H]21	59*	/	-31	6	1	/	/	/
CCN(CC)CCOc1ncnc2c1oc1ccccc12	-108	-2	-9	1	7	13	-10	i
Cc1noc(C)c1S(=O)(=O)NC(=O)C1(C)CCN1C(=O)C1(c2ccc(Cl)cc2)CC1 (stereo not given)	-5	/	-2	1	1	/	/	/
Cc1nc(C)c(C(=O)Nc2cccc(C)c2C)o1	-18	-8	-8	-1	-2	-20	/	i
O=C(CN1C(=O)NC2(CCCCC2)C1=O)N1CCN(S(=O)(=O)c2cccc(F)c2)CC1	-7	-3	-9	-4	0	-8	-6	i
Clc1ccc(OCc2nc(-c3ccccn3)no2)c(Br)c1	-186	-9	-27	1	2	-11	59	i
Cc1ccccc1C(=O)Nc1c2c(nn1C(C)(C)C)CS(=O)(=O)C2	-6	11	-11	1	7	-1	2	i
COc1ccc(C=CC(=O)c2ccc([N+](=O)[O-])cc2)cc1	6	/	-17	3	-3	/	/	/
CC(Cl)C(=O)c1ccc2c(c1)CCN2C(=O)C1CC1 (stereo not given)	13	7	/	-2	5	-4	-15	/
Cc1c(NC(=O)c2ccco2)cccc1-c1nc2cccnc2s1	-22	-2	-8	-3	-5	14	-11	i
CCC(COC(=O)Nc1cccc(C)c1C)NC(=O)OCC(C)C (stereo not given)	/	-7	-13	6	-3	0	15	i
COC(=O)c1c(-c2ccc(N(C)C)cc2)sc2ccc(OC)cc12	/	/	-1	8	-2	/	106*	/
O=C1CCCCCN1Cc1nnc(SCc2nc3ccccc3s2)n1-c1ccccn1	-82	11	-27	-7	-2	0	-7	i
CN(c1ccc(F)cc1)S(=O)(=O)c1ccc(Cl)c(C(=O)Nc2ccncc2)c1	/	/	/	-3	-17	/	-15	i
O=C(NCc1ccc(F)cc1)C(c1ccccc1)N(CC1CCCO1)C(=O)Cn1nnc2ccccc21 (stereo not given)	-71	-5	5	1	-3	-3	/	i
O=C(Nc1nccs1)NC1CCCCC1	-74	-9	-8	7	4	1	7	i
CCc1ccc2c(c1)NC(=O)C2(C)Cc1ccc(OC(F)(F)F)cc1 (stereo not given)	?	/	-19	-5	-8	/	/	/
COc1ccc2c(c1)c(CC(=O)Nc1ccc(C)cc1)c(C)n2C(=O)c1ccc(Cl)cc1	/	-6	-20	-13	-18	-2	58	i
Cc1c(Cl)c([N+](=O)[O-])nn1Cc1ccc(C(=O)Nc2ccc(Cl)cn2)o1	/	-3	-18	1	-9	4	-11	i
CCN(Cc1ccccc1)Cc1cccc([N+](=O)[O-])c1	-5	5	-18	2	1	-6	-6	i
COc1cccc(NC(=O)COC(=O)c2nc(Cl)ccc2Cl)c1	-7	-4	/	-3	2	2	-15	i
COc1cc(/C=C/C(=O)OCC(=O)N2CCc3ccccc32)cc(OC)c1OC	-4	/	11	-2	-4	/	/	/
Cc1nc(SCc2ccccc2)c2oc3ccccc3c2n1	3	-2	-16	-3	-1	-2	25	i
CCO[C@@H]1OC(C(=O)N2CCN(Cc3ccccc3)CC2)=C[C@H](c2csc3ccccc23)[C@H]1CCCO	17	-5	-9	-3	-13	2	11	i

Random excerpt: four entries already listed
SMILES	HIV Env fusion	eIF4H inh	UUG fidelity	MT1-MMP act inh	MT1-MMP act inh RFP	PABP polyA inh	CSC inhib	Rce1 inhib
Cc1nc(SCc2ccccc2)c2oc3ccccc3c2n1	3	-2	-16	-3	-1	-2	25	i
COc1ccc2c(c1)c(CC(=O)Nc1ccc(C)cc1)c(C)n2C(=O)c1ccc(Cl)cc1	/	-6	-20	-13	-18	-2	58	i
CCc1ccc2c(c1)NC(=O)C2(C)Cc1ccc(OC(F)(F)F)cc1 (stereo not given)	?	/	-19	-5	-8	/	/	/
CCO[C@@H]1OC(C(=O)N2CCN(Cc3ccccc3)CC2)=C[C@H](c2csc3ccccc23)[C@H]1CCCO	17	-5	-9	-3	-13	2	11	i

Next section.
SMILES	HIV Env fusion	eIF4H inh	UUG fidelity	MT1-MMP act inh	MT1-MMP act inh RFP	PABP polyA inh	CSC inhib	Rce1 inhib
O=C(c1ccc(Cn2c(=O)[nH]c3ccccc3c2=O)cc1)N1CCN(c2ccc(F)cc2)CC1	41	-14	/	0	-7	0	-16	i
c1ccc2c(c1)cnc1ccccc12	-6&-1	8	-5	-7&-3	-4&-5	4	17&-20	i
Cc1ccc(Cl)cc1NC(=S)NN	-6	6	-12	3	1	5	-7	i
Cc1ccsc1CNS(=O)(=O)c1ccc(F)cc1	4	-7	-2	1	2	3	7	i
CCOC(=O)c1sc(NC(=O)CCN2CCCCCC2)c(C(=O)OCC)c1C	-16	-5	-11	4	1	-9	-3	i
O=C(NCc1ccc(F)cc1)C(c1ccco1)N(C(=O)c1csnn1)c1ccccc1 (stereo not given)	10	2	3	0	2	-2	-17	i
S=C(NCC1CCCO1)Nc1ccc(Cl)c(Cl)c1 (stereo not given)	3	2	-26	2	0	-3	-9	i
CCOc1ccc(OCCCC(=O)N2CCN(S(=O)(=O)c3ccccc3C#N)CC2)cc1	-10	/	7	0	-8	/	-17	/
CC(=O)OCC(=O)Nc1ccccc1C	-21	-10	-19	0	5	41	-8	i
O=C(CSc1nnc(Cc2ccccc2)o1)Nc1ccc2c(c1)OCO2	/	4	/	0	0	-1	12	i
COc1ccc(N2CCN(C(=O)c3cccc(S(=O)(=O)N4CCCc5ccccc54)c3)CC2)cc1	45	/	0	-1	-3	/	-7	/
Cc1ccc(C(=O)N/C(=C\c2ccco2)C(=O)NCCCN2CCOCC2)cc1C	-10	-1	-20	2	5	-2	/	i
OC(CN1CCOCC1)C12CC3CC(CC(C3)C1)C2 (stereo not given)	/	4	-1	5	3	-8	9	i
COc1ccc(C(C(=O)NC2CCCC2)N(C(=O)c2ccoc2C)c2ccc(C)c(C)c2)cc1 (stereo not given)	26	-2	12	-4	-4	2	38	i
O=C(NCc1ccccc1)C(c1ccco1)N(C(=O)c1ccccn1)c1ccc(F)cc1 (stereo not given)	-11	12	/	6	4	18	-15	i
COc1ccc(-n2nc(C)c3sc(C)nc3c2=O)cc1	-12	-2	/	3	6	3	-5	i
O=C(c1ccc2c3n(nc2c1)-c1ccccc1CO3)N1CCOCC1	/	0	-43	-1	1	2	98*	i
O=[N+]([O-])c1ccccc1CN1CCN(Cc2ccc3ccccc3c2)CC1	9	3	-3	1	-5	14	11	/
O=S(=O)(c1cnc(Cl)c(Br)c1)N1CCN(c2ncccn2)CC1	10	-3	-15	-2	7	-5	0	i
COc1cccc(CN(C)CC2CCCN(CCc3ccccc3C)C2)c1 (stereo not given)	2	-5	-4	5	5	-3	4	i
O=C(NC(=S)NCc1ccc(Cl)cc1)c1ccco1	-3	/	-24	0	4	/	-12	/
Nc1ncnc2c1ncn2[C@@H]1O[C@H](C(=O)NCCc2ccc(F)cc2)[C@@H](O)[C@H]1O	24	/	-7	4	8	/	/	/
Cc1ccc(C)c(OCC(=O)Nc2ccc3c(c2)OCO3)c1C	-24	-3	-3	6	-7	8	33	i
Cn1c(-c2ccc(F)cc2)cnc1SCC(=O)Nc1ccccc1N1CCOCC1	/	2	-15	2	0	0	12	i
COc1cccc(NC(=O)C2CCC(CNS(=O)(=O)c3cccc4cccnc34)CC2)c1 (stereo not given)	6	-1	11	0	-6	-9	-27	i
COCCCn1c(=O)c2sccc2n(Cc2ccccc2C)c1=O	6	9	-3	-1	-1	2	-5	i
COC(=O)c1ccc(CNC(=O)c2cc(S(=O)(=O)NCc3ccccc3)ccc2C)cc1	17	/	2	1	-7	/	/	/
Cc1cc(NC(=O)c2ccc(-c3ccccc3F)o2)no1	-25	3	/	-1	-7	0	-13	i
CN(CC(=O)Nc1ccccc1Cl)C(=O)COC(=O)c1ccc(C(F)(F)F)cc1	-2	/	-3	2	6	/	/	/
CC[C@@H](C)[C@@H](C(=O)N1CCN(C(=O)OC(C)(C)C)CC1)n1cc(CCC(=O)O)nn1	4	-3	-5	2	5	5	-1	i
O=C(NCCO)/C(=C\c1ccco1)NC(=O)c1ccco1	2	10	-11	-5	5	11	-5	i
Cc1nn(-c2ccccc2)c2sc(C(=O)N3CCOCC3)cc12	-38	0	-7	-2	-6	-2	-23	i
CCc1nnc(NC(=O)c2sc3nc4c(cc3c2N)CCCCC4)s1	-101	4	/	4	-1	11	24	i
COc1ccc(OC)c(NC(=O)CSc2nc3c(c(=O)n(C)c(=O)n3C)n2C)c1	/	-6	-14	-1	-3	1	-8	i
O=C(NC1CCCc2c1cnn2-c1cc(F)cc(F)c1)c1ccccn1 (stereo not given)	16	-1	-3	0	-2	-7	-16	i
Cc1ccc(-c2n[nH]c(=S)n2-c2ccccc2)cc1	-21	-3	-17	-1	6	18	-10	i
COc1ccc2c(C)cc(SCC(=O)Nc3ccc(Cl)cn3)nc2c1	/	13	-21	-6	-2	2	13	i
CCOC(=O)N1CCN(S(=O)(=O)c2ccc(C)cc2)CC1	-16	-11	-16	0	0	-11	-2	i
CCOC(=O)C1CCN(C(=O)c2ccc3c(SCC(=O)O)c4c(nc3c2)CCCC4)CC1	3	11	/	-1	5	8	-3	i
S=c1[nH]nc(-c2ccc3ccccc3n2)n1-c1ccc2c(c1)OCCO2	-73	-1	/	1	4	5	1	i
COCCn1nnnc1C(C(C)C)N(Cc1ccccc1)Cc1cc2cc(OC)ccc2[nH]c1=O (stereo not given)	/	14	-32	2	8	20	/	/
CCC(C(=O)OC)(C(=O)OC)c1ccc([N+](=O)[O-])cc1	-2	4	-17	0	2	-3	2	i
COc1ccc(CN2CCC[C@]3(N[C@H](c4ccccc4)[C@@H]4C(=O)N(Cc5ccccc5)C(=O)[C@@H]43)C2=O)cc1	-67	/	-3	0	-2	/	/	/
CCNc1ccc(C(=O)NN=C2CCCC2)cc1[N+](=O)[O-]	7	-10	/	7	2	0	-11	/
Cc1[nH]n(-c2ccccc2)c(=O)c1/C=N\NC(=O)C1COc2ccccc2O1 (stereo not given)	-2	10	/	6	3	-9	8	i
N#CCCN(C(=O)CSc1nc(-c2ccccc2)cn1N)c1ccc(F)cc1	/	-8	-14	3	6	3	-12	i
COC(=O)Nc1nc2c(C)cccc2s1	/	-7	-19	0	0	-2	-7	i
CC1CCCCC1NC(=O)CN1C(=O)COc2ccccc21 (stereo not given)	10	10	-10	1	5	0	-4	i
CCc1cccc(CC)c1NC(=O)c1ccccc1	22	3	/	8	9	-3	4	i
O=C(NCC1CCCO1)c1ccc(CS(=O)(=O)Cc2ccc(F)cc2)o1 (stereo not given)	/	-13	-9	2	-6	-8	0	i
CC(=O)c1ccc(S(=O)(=O)Nc2ccc(N3CCOCC3)cc2)cc1	-6	-3	-12	2	-2	7	-8	i
CCCCSc1nc(N)c(NC(=O)c2ccco2)c(=O)[nH]1	/	-7	13	-3	2	-3	14	i
CCN1CCN(C(c2ccc(OC)c(OC)c2)c2nnnn2C(C)(C)C)CC1 (stereo not given)	/	-6	-10	-4	1	-2	/	i
CC(C)(C)S(=O)(=O)c1cnc2c(-c3ccc(Cl)cc3)cnn2c1N	12	-32	-10	-4	-12	-37	-2	i
